Vaccinia stage – blocks a specific stage of Vaccinia orthopoxvirus infection. 0.01% of 89,000 active. AID 1053133. activity change (mCherry), % (concentration not given with the values). Vaccinia-infected cells, mCherry/Venus stage reporter fluorescence; hits give low values; some inactives read as strong as hits;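 active means mCherry past -33% and 40 or more points under the early reporter, replicates agreeing; inconclusive means past -33% without that gap or agreement; tested in A549 cells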;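 further: scaled between vehicle wells and reference inhibitor wells; 23 nL library stock went into each well; one replicate is shown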
Vaccinia stage Venus – also measured in Vaccinia stage; calls as there; activity change (Venus), %; measured here: Venus reporter, other viral stage;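 negative = less Venus signal; first of two replicates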
An asterisk follows results filed as active; u = inconclusive; x = no result given; & = joins results of further samples. A portion of the library; the hit share may differ from the screen's.

SMILES,Vaccinia stage,Vaccinia stage Venus
CCCN1C[C@@H](C)[C@@H](OC)CN(C)C(=O)c2cc(NS(=O)(=O)CC)ccc2OC[C@H]1C,7,-4
O=C(C1CCCC1)N1CC(=O)N2[C@@H](CO)[C@@H](c3ccc(-c4cccnc4)cc3)[C@@H]2C1,-6,-4
CO[C@H]1CN(C)C(=O)c2cc(NC(=O)C3CC3)ccc2OC[C@@H](C)N(CCC(F)(F)F)C[C@@H]1C,-13,-7
C[C@@H]1CN([C@H](C)CO)C(=O)c2cc(C#CC3(O)CCCC3)cnc2O[C@@H]1CN(C)C(=O)CC1CC1,4,4
CCCN(C)C[C@@H]1OCCCC[C@H](C)Oc2ccc(NC(=O)c3ccccc3)cc2C(=O)N([C@H](C)CO)C[C@@H]1C,-30,-19
COCC(=O)Nc1ccc2c(c1)[C@H]1C[C@H](CC(=O)NC3CCCCC3)O[C@H](CO)[C@H]1O2,6,5
CCC(=O)N1CC[C@@H]2[C@H]1c1cc(-c3ccccc3)ccc1N(C)[C@H]2CO,-9,-13
C[C@@H]1CN([C@H](C)CO)C(=O)c2cc(NC(=O)Nc3ccccc3)ccc2O[C@@H](C)CCCCO[C@@H]1CN(C)CC1CCCCC1,u,x
COc1ccc([Si](C)(C)[C@H]2[C@H](CCn3cc([C@H](O)c4ccccc4)nn3)O[C@@]3(C(=O)N(C)c4c(Br)cc(C)cc43)[C@@H]2C)cc1,-32,-28
Cc1ccc(S(=O)(=O)N(C)C[C@@H]2Oc3ccc(NC(=O)Cc4ccccc4)cc3CC(=O)N([C@@H](C)CO)C[C@H]2C)cc1,-11,-10
C[C@@H]1CCCCO[C@H](CN(C)C(=O)Nc2ccc(C(F)(F)F)cc2)[C@H](C)CN([C@@H](C)CO)C(=O)c2cc(NC(=O)c3ccccc3)ccc2O1,2,13
O=C(C[C@H]1C=C[C@H](NS(=O)(=O)c2ccccc2)[C@@H](CO)O1)NCCN1CCCCC1,-3,-7
COCC(=O)Nc1ccc2c(c1)C(=O)N(C)C[C@H](OC)[C@@H](C)CN(C(=O)c1ccccn1)[C@@H](C)CO2,11,5
Cc1ccc(-c2ccc3c(c2)O[C@@H](CN(C)Cc2ccc(C(=O)O)cc2)[C@H](C)CN([C@@H](C)CO)S3(=O)=O)cc1,0,-4
COc1ccc(NC(=O)N(C)C[C@@H]2Oc3c(NS(=O)(=O)c4ccc(C)cc4)cccc3C(=O)N([C@H](C)CO)C[C@H]2C)cc1,22,35
C[C@@H]1CCCCO[C@H](CN(C)S(=O)(=O)c2cn(C)cn2)[C@H](C)CN([C@@H](C)CO)C(=O)c2cc(NC(=O)Nc3ccccc3)ccc2O1,19,15
COc1ccc(S(=O)(=O)Nc2ccc3c(c2)C(=O)N([C@H](C)CO)C[C@@H](C)[C@@H](CN(C)C(=O)Nc2c(C)noc2C)OCCCC[C@@H](C)O3)cc1,23,23
COc1ccc(NC(=O)N(C)C[C@@H]2Oc3ncc(C4=CCCC4)cc3C(=O)N([C@@H](C)CO)C[C@H]2C)cc1,8,-2
CO[C@@H]1CN(C)C(=O)c2cc(NC(=O)Nc3ccc(Cl)cc3)ccc2OC[C@@H](C)N(C)C[C@@H]1C,u,x
C[C@H]1CN([C@@H](C)CO)C(=O)c2cc(NC(=O)CCN3CCOCC3)ccc2O[C@@H]1CN(C)C(=O)Nc1ccc2c(c1)OCO2,13,5
COc1ccc2c3c([nH]c2c1)[C@@H](CO)N(C(=O)c1ccccc1)CC31CN(C(=O)CC2CC2)C1,16,-4
CCCC#Cc1ccc([C@@H]2[C@@H](CO)N3CCCCN(S(=O)(=O)c4ccccc4C)C[C@H]23)cc1,-31,-26
CCC(=O)N1C[C@@H](C)[C@@H](OC)CN(C)C(=O)c2cc(NC(=O)C3CCOCC3)ccc2OC[C@H]1C,31,16
O=C(NCC[C@@H]1CC[C@@H](NC(=O)C2CC2)[C@@H](CO)O1)Nc1ccc(C(F)(F)F)cc1,0,-3
C[C@H](CO)N1C[C@H](C)[C@H](CN(C)Cc2ccccc2)OCCCC[C@H](C)Oc2ccc(NC(=O)Nc3ccc(F)cc3)cc2C1=O,u,x
C[C@@H]1CCCCO[C@H](CN(C)C(=O)Nc2ccc3c(c2)OCO3)[C@H](C)CN([C@H](C)CO)C(=O)c2cc(NS(C)(=O)=O)ccc2O1,25,13
C[C@@H]1CN([C@@H](C)CO)C(=O)Cc2cc(NC(=O)Nc3ccccc3)ccc2O[C@H]1CN(C)C(=O)Nc1ccc(F)cc1,5,6
C[C@H]1CN([C@@H](C)CO)C(=O)c2cc(NC(=O)Nc3cccc4ccccc34)ccc2O[C@@H]1CN(C)S(=O)(=O)c1ccc(Cl)cc1,5,8
CO[C@@H]1CN(C)C(=O)c2ccc(NC(=O)C3CCCCC3)cc2OC[C@H](C)N(Cc2nccs2)C[C@H]1C,-14,-16
C/C=C/c1ccc2c(c1)O[C@@H](CN(C)Cc1ccncc1)[C@H](C)CN([C@H](C)CO)S2(=O)=O,2,5
COc1ccc2c3c([nH]c2c1)[C@@H](CO)N(C(=O)NC1CCCC1)CC31CCN(S(C)(=O)=O)CC1,2,4
CCCNC(=O)N1[C@H](CO)[C@@H](c2ccc(-c3ccc(C(=O)N(C)C)cc3)cc2)[C@@H]1C#N,-3,-13
Cc1cccc(S(=O)(=O)N2C[C@@H](O)COC[C@H]3O[C@@H](CC(=O)NCc4ccncn4)CC[C@@H]32)c1,10,10
O=C(C[C@H]1CC[C@@H]2[C@H](COC[C@@H](O)CN2C(=O)Cc2ccccc2)O1)NC1CCCC1,1,-3
C[C@@H]1CN([C@H](C)CO)C(=O)c2cc(/C=C/c3ccccc3)cnc2O[C@H]1CN(C)Cc1cncnc1,-3,-1
C[C@@H]1CN([C@H](C)CO)C(=O)c2cc(NC(=O)Nc3ccc(F)cc3)ccc2O[C@@H]1CN(C)C,-5,-1
O=C(C[C@H]1CC[C@@H](NC(=O)c2ccc3c(c2)OCO3)[C@@H](CO)O1)NCc1ccc(Cl)cc1,4,8
OC[C@@H]1[C@@H](c2ccc(-c3ccccc3)cc2)[C@H]2CN(CCC(F)(F)F)CCCCN12,u,x
C[C@@H]1CN([C@@H](C)CO)C(=O)c2ccccc2-c2ccccc2CO[C@@H]1CN(C)C(=O)NC1CCCCC1,8,0
O=C(Nc1nccs1)[C@H]1[C@H](CO)[C@H]2Cn3c(cccc3=O)[C@@H]1N2C(=O)C1CC1,11,11

Compound profiles (already shown).
CCCN1C[C@@H](C)[C@@H](OC)CN(C)C(=O)c2cc(NS(=O)(=O)CC)ccc2OC[C@H]1C reads Vaccinia stage = 7; Vaccinia stage Venus = -4
O=C(C[C@H]1C=C[C@H](NS(=O)(=O)c2ccccc2)[C@@H](CO)O1)NCCN1CCCCC1 reads Vaccinia stage = -3; Vaccinia stage Venus = -7

Back to the main list; the 4 compounds before the break are reprinted first.
SMILES,Vaccinia stage,Vaccinia stage Venus
O=C(C[C@H]1CC[C@@H](NC(=O)c2ccc3c(c2)OCO3)[C@@H](CO)O1)NCc1ccc(Cl)cc1,4,8
OC[C@@H]1[C@@H](c2ccc(-c3ccccc3)cc2)[C@H]2CN(CCC(F)(F)F)CCCCN12,u,x
C[C@@H]1CN([C@@H](C)CO)C(=O)c2ccccc2-c2ccccc2CO[C@@H]1CN(C)C(=O)NC1CCCCC1,8,0
O=C(Nc1nccs1)[C@H]1[C@H](CO)[C@H]2Cn3c(cccc3=O)[C@@H]1N2C(=O)C1CC1,11,11
CO[C@@H]1CN(C)C(=O)c2cc(NC(=O)Nc3ccc(C(F)(F)F)cc3)ccc2OC[C@H](C)NC[C@H]1C,u,x
NCC[C@H]1CC[C@@H](NC(=O)C2CCCC2)[C@@H](CO)O1,4,6
C[C@H]1CN([C@@H](C)CO)C(=O)c2cccc(NS(C)(=O)=O)c2O[C@H]1CN(C)C(=O)Nc1cccc2ccccc12,15,14
COc1cccc(NC(=O)C[C@H]2CC[C@H]3[C@@H](COc4ccc(NC(=O)C5CC5)cc4C(=O)N3C)O2)c1,12,7
O=C(C[C@@H]1CC[C@H]2[C@@H](COC[C@@H](O)CN2CCc2ccccc2)O1)NCc1ccc(Oc2ccccc2)cc1,u,x
COCC#Cc1ccc2c(c1)O[C@@H](CN(C)CC1CCOCC1)[C@H](C)CN([C@H](C)CO)S2(=O)=O,20,12
O=C(c1cccc(F)c1)N1CC[C@@H]2[C@H]1c1cc(C#Cc3ccc(F)cc3)ccc1N[C@@H]2CO,-12,-2
C[C@H]1CN([C@@H](C)CO)C(=O)c2cc(NC(=O)CCC(F)(F)F)ccc2O[C@@H]1CN(C)S(=O)(=O)c1ccc(Cl)cc1,-10,-14
C[C@H]1CN([C@@H](C)CO)S(=O)(=O)c2ccc(-c3cncnc3)cc2O[C@H]1CN(C)Cc1ccncc1,7,2
CC=Cc1ccc2n(c1=O)C[C@@H]1[C@@H](CO)[C@H](C(=O)N3CCc4ccccc4C3)N(C(=O)C3CCC3)[C@H]21 (mixture of isomers),17,14
CO[C@@H]1CN(C)C(=O)c2cc(NC(=O)c3ccccc3F)ccc2OC[C@@H](C)N(CC2CCOCC2)C[C@H]1C,-14,0
CCC(=O)N(C)C[C@H]1Oc2ncc(C#CC(C)(C)O)cc2C(=O)N([C@@H](C)CO)C[C@@H]1C,5,2
Cc1noc(C)c1NC(=O)N(C)C[C@@H]1Oc2ncc(C#CC(C)C)cc2C(=O)N([C@H](C)CO)C[C@@H]1C,-1,-3
Cc1noc(C)c1S(=O)(=O)N(C)C[C@H]1Oc2ccc(NS(=O)(=O)c3cn(C)cn3)cc2C(=O)N([C@H](C)CO)C[C@H]1C,21,18
C[C@@H]1CN([C@@H](C)CO)C(=O)c2cc(N(C)C)ccc2O[C@@H](C)CCCCO[C@@H]1CN(C)C(=O)c1ccccc1,13,14
COc1cccc(CNC(=O)C[C@H]2C=C[C@@H](NC(=O)C3CC3)[C@@H](CO)O2)c1,-5,4
CN1C(=O)c2cc(NC(=O)c3ccccc3)ccc2OC[C@H]2O[C@@H](CC(=O)O)CC[C@H]21,-6,-4
CN1C(=O)c2cc(NC(=O)Nc3ccc(Cl)cc3)ccc2OC[C@@H]2O[C@@H](CC(=O)NCCN3CCCCC3)CC[C@H]21,-1,2
COc1cccc(CNC(=O)C[C@@H]2C=C[C@@H](NC(C)=O)[C@@H](CO)O2)c1,24,15
CCC(=O)N1[C@H](CO)[C@@H](c2ccccc2)C12CN(C(=O)c1ccc(F)cc1)C2,5,5
Cc1ccc(S(=O)(=O)Nc2ccc3c(c2)C(=O)N([C@@H](C)CO)C[C@@H](C)[C@H](CN(C)C(=O)Nc2cccc4ccccc24)OCCCC[C@@H](C)O3)cc1,9,13
C[C@H]1CN([C@@H](C)CO)C(=O)CCCn2cc(nn2)CO[C@@H]1CN(C)C(=O)Nc1cccc(Oc2ccccn2)c1,18,16
CC(=O)N1CC(=O)N2[C@H](CO)[C@@H](c3ccc(-c4ccccc4)cc3)[C@H]2C1,1,2
CN(C)C(=O)c1ccc(-c2ccc([C@H]3[C@H]4CN(C(=O)C5CCCCC5)CC(=O)N4[C@H]3CO)cc2)cc1,4,2
O=C1CN(Cc2ccc(F)cc2)C[C@@H]2[C@@H](c3ccc(-c4ccccc4F)cc3)[C@H](CO)N12,-13,-9
O=C(NCC[C@@H]1CC[C@H](NC(=O)Nc2cc(F)ccc2F)[C@H](CO)O1)Nc1ccc(F)cc1,-17,-14
CN(C)C(=O)C[C@H]1C=C[C@H](NC(=O)NC2CCCC2)[C@@H](CO)O1,-1,2
COc1ccc2c3c(n(C)c2c1)[C@@H](CO)N(Cc1ccccc1)CC31CN(C)C1,10,-12
Cc1noc(C)c1NC(=O)N(C)C[C@@H]1Oc2ccc(NC(=O)C3CC3)cc2CC(=O)N([C@@H](C)CO)C[C@H]1C,3,5
COCC#Cc1ccc([C@H]2[C@H]3CN(C(=O)c4ccncc4)CC(=O)N3[C@H]2CO)cc1,20,18
COc1cccc(NC(=O)N(C)C[C@H]2Oc3cc(-c4cccc(C(=O)N(C)C)c4)ccc3S(=O)(=O)N([C@H](C)CO)C[C@@H]2C)c1,13,12
COCC(=O)N1[C@H](CO)[C@@H](c2ccccc2)C12CN(C(=O)NC1CCCCC1)C2,11,6
Cc1ccc(CN(C)C[C@@H]2OCc3cnnn3CCCC(=O)N([C@@H](C)CO)C[C@H]2C)cc1,7&10,10&8
CN(C)CC(=O)N[C@H]1CC[C@@H](CC(=O)O)O[C@@H]1CO,2,1
C[C@H](CO)N1C[C@H](C)[C@H](CN(C)Cc2ccc(Oc3ccccc3)cc2)Oc2c(NS(=O)(=O)c3cccs3)cccc2C1=O,15,15
Cc1ccc(S(=O)(=O)N(C)C[C@@H]2OCCCC[C@@H](C)Oc3ccc(NC(=O)Cc4ccccc4)cc3C(=O)N([C@H](C)CO)C[C@@H]2C)cc1,13,3
COc1cccc(S(=O)(=O)N[C@@H]2CC[C@@H](CCN)O[C@@H]2CO)c1,24,21
C[C@H]1CN([C@@H](C)CO)C(=O)Cc2cc(NC(=O)C3CCCCC3)ccc2O[C@@H]1CN(C)Cc1ccc(Cl)c(Cl)c1,-26,-21
CO[C@H]1CN(C)C(=O)c2cc(NC(=O)NC3CCCCC3)ccc2OC[C@H](C)NC[C@H]1C,-6,-8
CCCN(C)C[C@H]1Oc2ncc(C#CC3(O)CCCC3)cc2C(=O)N([C@@H](C)CO)C[C@H]1C,18,5
O=C(N[C@@H]1C=C[C@H](CC(=O)N2CCc3ccccc3C2)O[C@@H]1CO)C1CCOCC1,25,9
CC(C)C#Cc1ccc([C@@H]2[C@@H](C#N)N(C(=O)c3cccc(F)c3)[C@H]2CO)cc1,-14,-15
